# Screening data as filed in PubChem BioAssay.
# PABP polyA inh = PABP poly(A) RNA binding inhibitors, primary screen, biochemical, fluorescence polarization, uHTS; Polyadenylate-binding protein 1 (Homo sapiens), P11940; inhibition, % at 35 µM; 1% of 290,000 active;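 active = 50% or more with normal probe brightness, or confirmed in later tests; about a fifth of its hits are not listed in these tables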;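 note: calls also rest on retests at 20 µM and on dose response follow-up; controls were probe without protein and protein plus probe with vehicle; some compounds called inactive have numbers as strong as hits; many hits fall short of the cut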
# Target sequence (P11940 whole entry, looked up): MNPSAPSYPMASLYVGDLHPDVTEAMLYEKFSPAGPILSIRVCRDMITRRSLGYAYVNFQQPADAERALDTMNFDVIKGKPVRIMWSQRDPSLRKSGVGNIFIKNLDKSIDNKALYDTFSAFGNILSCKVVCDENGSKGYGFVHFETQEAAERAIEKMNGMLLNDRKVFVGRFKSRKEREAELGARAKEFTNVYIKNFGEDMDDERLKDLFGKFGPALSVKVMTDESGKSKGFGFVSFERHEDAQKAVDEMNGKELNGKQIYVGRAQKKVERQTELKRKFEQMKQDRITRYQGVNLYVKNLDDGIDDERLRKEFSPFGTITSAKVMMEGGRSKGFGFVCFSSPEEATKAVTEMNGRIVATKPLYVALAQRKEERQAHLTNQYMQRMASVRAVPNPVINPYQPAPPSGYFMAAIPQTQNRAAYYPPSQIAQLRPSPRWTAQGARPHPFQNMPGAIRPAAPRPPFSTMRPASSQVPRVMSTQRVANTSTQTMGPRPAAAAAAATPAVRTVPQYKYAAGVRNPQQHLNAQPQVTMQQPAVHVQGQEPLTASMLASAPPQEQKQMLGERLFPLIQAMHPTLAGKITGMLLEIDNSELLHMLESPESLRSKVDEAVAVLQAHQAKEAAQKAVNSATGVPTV
# Rce1 inh = yeast Rce1p protease inhibitors, primary screen, biochemical, fluorescence, cell-free homogeneous; CAAX prenyl protease 2 (Saccharomyces cerevisiae (strain ATCC 204508 / S288c)), Q03530; yeast membranes, quenched prenylated peptide cleavage fluorescence; calls only; 0.27% of 290,000 active; AID 2563, 2010;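 active = fall in fluorescence gain of 50% or more versus controls, with final raw signal at or below 3038400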;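 note: plate controls were neutral control wells for no effect and wells lacking membranes for full effect; tested at 10 µM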
# Target sequence (Q03530 whole entry, looked up): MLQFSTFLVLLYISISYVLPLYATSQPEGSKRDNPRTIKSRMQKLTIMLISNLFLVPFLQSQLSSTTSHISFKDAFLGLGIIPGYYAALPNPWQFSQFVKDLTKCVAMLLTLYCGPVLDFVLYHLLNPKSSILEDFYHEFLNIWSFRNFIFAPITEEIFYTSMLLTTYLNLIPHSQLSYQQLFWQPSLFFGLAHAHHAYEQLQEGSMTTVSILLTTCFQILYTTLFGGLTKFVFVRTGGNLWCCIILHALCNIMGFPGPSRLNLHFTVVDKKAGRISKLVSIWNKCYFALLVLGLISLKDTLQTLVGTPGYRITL
# eIF4H FP inh = human eIF4H binding inhibitors, primary screen, translation initiation inhibitor project, biochemical, uHTS, fluorescence polarization. AID 2012, 2009. Eukaryotic translation initiation factor 4H (Homo sapiens), Q15056. eIF4H fluorescence polarization binding assay. inhibition, % at 35 µM. 0.94% of 290,000 active;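 active = 50% or more with normal probe brightness, or confirmed in later tests; about a fifth of its hits are not listed in these tables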;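 note: calls also rest on retests at 20 µM and on dose response follow-up; 0% = protein and probe with vehicle and 100% = probe without protein; strong numbers were not always called active; many hits fall short of the cut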
# HIV Env fusion = inhibitors of HIV-1 Env-driven cell-cell fusion, primary screen, HeLa-JRFL effector, CEM21 target cells, luciferase; inhibition, % at 12.3 µM; 1.1% of 360,000 active; AID 651610, 2012;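 active = mean replicate inhibition score of at least 50 and every replicate individually at or above 50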;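 note: 0% = plate neutral controls and 100% = maraviroc near 300 nM; one replicate is shown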
# MT1-MMP act inh = blockers of MT1-MMP proenzyme processing, primary screen, HT1080 RFP-PRO-GFP cells, GFP/RFP fluorescence | GFP/RFP ratio fluorescence, overnight; percent of plate control window, DMSO zero | GFP/RFP ratio change, % at 20 µM | 0.061% of 360,000 active | AID 651647, 2012;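 active = GFP/RFP ratio change of at least 30% with cell ATP level not reduced by more than half and red fluorescence within 50% of control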; note: strong numbers were not always called active
#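 Material – HT1080 RFP-PRO-GFP cells · Control set – DMSO wells and RFP-L50D-GFP cells · Incubation – overnight cell settling, then overnight compound exposure, 37 °C, 5% CO2 · Compound dosing – single-point 20 µM compound, 1% DMSO · Read-out – GFP/RFP fluorescence ratio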
# Yeast UUG start = modulators of yeast start codon fidelity, primary screen, whole organism, S. cerevisiae, single point, plate reader; S. cerevisiae UUG-firefly luciferase reporter, luminescence/redox ratio; activity score, % at 18.7 µM; 0.13% of 350,000 active;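 active = replicate mean at a twofold rise or more, about +100% in these data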;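 note: firefly luciferase made from a UUG start codon reports start codon fidelity; reporter light over untreated wells divided by growth signal over untreated wells; some hits fall short of that in this replicate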
# CSC inhib = cancer stem cell viability inhibitors, primary screen, luminescence; cancer stem cell-like cells viability; inhibition, % at 7.5 µM; 1.1% of 300,000 active; AID 2717, 2010;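 active = mean at 75% or more and at least half the replicates too; tested in HMLE shEcad cells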;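 note: 0% = median of negative and 100% = median of positive control wells; the first replicate is given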
# eIF4H FP inh retest = also measured in eIF4H FP inh; calls as there; inhibition, %; compound at 20 µM; confirmation average;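 mean of two retest wells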
# PABP polyA inh retest = second read-out of PABP polyA inh, no call of its own (marks repeat the call); inhibition, %; compound at 20 µM; confirmation repeats;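 mean of two retest wells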
# MT1-MMP act inh RFP = also measured in MT1-MMP act inh; calls as there; RFP signal change, %; measured here: RFP expression control read;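 0 = vehicle wells; hits needed this value within 50% of zero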
# An asterisk follows results filed as active; i = inactive; nt = not tested or not shown. This is a random part of the collection. About 2.9% of those tested had a hit in this group.
SMILES,PABP polyA inh,Rce1 inh,eIF4H FP inh,HIV Env fusion,MT1-MMP act inh,MT1-MMP act inh RFP,Yeast UUG start,CSC inhib,others
COc1cc(OC)c(OC)cc1/C=C1\CC(C)C/C(=C\c2cc(OC)c(OC)cc2OC)C1=O (stereo unspecified),-29,i,-8,17,-77,-27,0,12,
C[C@H]1CN([C@@H](C)CO)S(=O)(=O)c2ccc(C#Cc3ccccn3)cc2O[C@@H]1CN(C)C(=O)C1CC1,nt,nt,nt,-2,1,1,22,nt,
CCc1ccc(C(=O)Nc2cc(C)ccc2F)s1,-9,i,-3,-12,-1,-1,5,-6,
Cc1oc(-c2cccc(Cl)c2)nc1CN1CCCC(C(=O)NCc2ccco2)C1 (stereo unspecified),1,i,-4,7,2,0,-9,-5,
CCOc1ccc(CNc2nnnn2C)cc1,13,i,-1,-14,1,2,-2,-26,
Cc1ccc(S(=O)(=O)N2CCC(C(=O)NNC(=O)c3cccnc3)CC2)cc1,-3,i,-1,5,-6,-5,nt,3,
Cc1nc2ccc(S(=O)(=O)NCC(=O)N3CCN(c4ccccn4)CC3)cc2s1,-5,i,-9,nt,-1,-2,nt,-12,
Cc1ccc(S(=O)(=O)N2CCN(CC(=O)N/N=C\c3ccc(Cl)c([N+](=O)[O-])c3)CC2)cc1,-9,i,-3,4,4,3,9,26,
CCOC(=O)c1c(S(=O)(=O)NCCc2ccco2)c(C)n(C)c1C,-3,i,-10,4,-1,3,-4,-7,
COc1ccc(CCNC(=O)CSc2nc3ccccc3c3nc(CCN4CCCCC4)nn23)cc1OC,5,i,-5,-5,0,-1,nt,-10,
CCCN1C2CCCC1CC(NC(=O)c1ccc(Br)cc1)C2 (stereo unspecified),7,i,-5,3,1,-1,-11,-1,
CC(C)OCCCNC(=O)Cc1ccc(Br)cc1,-12,i,-4,-10,0,-1,nt,nt,
CC(=O)c1sc(N)c(C(=O)OC(C)C)c1C,-1,i,11,nt,1,1,6,nt,
CC(=O)c1cc(CN2CCN(Cc3ccc(C)cc3)C(CCO)C2)cs1 (stereo unspecified),-5,i,-7,-1,3,4,nt,5,
COC(=O)c1cccc(NC(=O)CSc2nnc(C)n2C)c1,4,i,-6,3,4,8,-8,-7,
O=C(c1ccccc1)c1ccccc1NC(=O)C1CCCN1Cc1ccccc1 (stereo unspecified),-4,i,4,40,-5,-9,nt,17,
COc1ccccc1NC(=S)N1CCN(C(=O)c2ccco2)CC1,3,i,0,-37,-4,12,-10,-7,
CCOc1ccc(CN(C)C(=O)c2ccc(NS(=O)(=O)c3ccc4[nH]c(=O)[nH]c4c3)cc2)cc1,nt,i,nt,nt,-4,-3,-14,-5,
COC(=O)CCn1[nH]c(=O)c2ccccc2c1=O,-10,i,-3,-48,1,4,5,-2,
CCOC(=O)C1CCCN(C(=O)c2cncc(Br)c2)C1 (stereo unspecified),-4,i,-3,nt,-3,3,-6,5,
O=C(Nc1ccc2oc(=O)ccc2c1)c1ccc2ccccc2c1,5,i,-6,-26,5,-1,-1,12,
Cc1cccc(NC(=S)N(CCN2CCOCC2)Cc2cc3cc4c(cc3[nH]c2=O)OCCO4)c1,16,i,-7,17,-5,-4,nt,nt,
CCOC(=O)C1=C(COC(=O)[C@@H]2CCCN2S(=O)(=O)c2ccc(C)cc2)NC(=O)NC1C (stereo partly specified),12,i,31,nt,-6,1,3,0,
COC(=O)C1CCN(C(=O)c2ccc(Cl)c(S(=O)(=O)NCc3ccco3)c2)CC1,nt,nt,nt,nt,0,-3,-6,-1,
Cc1ccccc1OCC(=O)Nc1nnc(-c2ccco2)s1,-2,nt,9,-12,10,-2,nt,0,

# The list continues:
SMILES,PABP polyA inh,Rce1 inh,eIF4H FP inh,HIV Env fusion,MT1-MMP act inh,MT1-MMP act inh RFP,Yeast UUG start,CSC inhib,others
O=C1CC2(CCCCC2)CC(=O)N1CCc1ccccc1,nt,nt,nt,-8,-1,-1,-16,nt,
O=C(O)c1ccc2oc(=O)c(S(=O)(=O)c3ccc(F)cc3)cc2c1,0,i,-7,5,1,1,-10,-17,
NC(=O)COc1ccc(/C=N/NS(=O)(=O)c2ccccc2)cc1,0.2*,i,96,13,2,6,nt,-4,eIF4H FP inh retest=45;PABP polyA inh retest=52*
S=C(Nc1cc(Cl)cc(Cl)c1)N1CCN(c2ccccn2)CC1,-3,i,-5,17,1,4,-17,5,
Cc1ccc(C)c(CSc2ncccc2C(=O)O)c1,-14,i,4,nt,3,0,nt,nt,
Cc1ccc(C(C(=O)NC2CCCCC2)N2CCC3(CC2)OCCO3)cc1 (stereo unspecified),-2,i,-8,-48,2,-2,16,-9,
CC(C)c1ccc(NC(=O)c2cc(S(=O)(=O)N3CCCCC3)c[nH]2)cc1,-18,i,-4,7,1,4,-17,-8,
Cc1nn(C(C)C(=O)NCCC2=CCCCC2)c(=O)c2nn(-c3ccccc3)c(C)c12 (stereo unspecified),8,i,-3,-1,0,-16,-14,-19,
CC(SC1=NCCS1)C(=O)Nc1nnc(-c2ccc(Cl)cc2)s1 (stereo unspecified),7,i,3,25,-6,-3,-18,45,
O=C(c1ccccc1)N1CCN(CCc2ccccn2)CC1,6,i,-7,5,0,5,-12,-7,
O=C(c1ccc(Cl)cc1)c1cnc2ccccn12,5,i,1,-139,2,2,-26,22,
CCNC(=O)CN(C1CCCCC1)S(C)(=O)=O,-3,i,-3,2,4,0,0,-9,
CCc1nnc(NC(=O)CSc2nnc(CNC(=O)c3ccc(OC)c(OC)c3)o2)s1,-8,i,16,5,2,6,nt,-7,
O=C(C1CC1)N1CCN=C1SCc1ccc(Cl)cc1,-5,i,-2,nt,5,-1,-5,-8,
Cc1ccc(S(=O)(=O)N2CCC(C(=O)NCC3CCCO3)CC2)cc1 (stereo unspecified),5,i,-1,-14,1,3,-19,nt,
CCOC(=O)C1=C(C)N(Cc2ccccc2)C(=O)NC1c1ccccc1OS(=O)(=O)c1ccccc1[N+](=O)[O-] (stereo unspecified),nt,i,nt,47,-7,-20,-17,-14,
Cc1ccccc1NC(=O)N(C(C)C)C(C)C,0,i,0,nt,13,4,5,-1,
O=C(COC(=O)CNC(=O)c1ccccc1F)Nc1ccc(Cl)cn1,nt,nt,nt,1,-2,2,-10,-21,
O=C(c1ccco1)N1CCN(CC(O)COc2ccc3oc4ccccc4c3c2)CC1 (stereo unspecified),3,i,5,nt,-8,-9,-2,-10,
O=C(Cc1ccc(Cl)cc1)NCCc1cnc[nH]1,9,i,5,14,3,2,-15,2,
O=c1c2ccccc2nc(/C=C/c2ccc([N+](=O)[O-])cc2)n1CCCO,-11,i,-5,nt,13,-1,0,-8,
CN1CCC(N2CCN(C3CN(Cc4ccccc4)S(=O)(=O)C3)CC2)CC1 (stereo unspecified),nt,nt,nt,-84,2,3,0,nt,
C/C(=N\NC(=O)c1ccc(O)cc1)c1cc2ccccc2o1,-9,i,-8,-16,3,4,-15,11,
COCCNC(=O)c1ccccc1NS(=O)(=O)c1ccc(Br)s1,14,i,-4,-25,1,-1,-18,nt,
NS(=O)(=O)c1cccc(NC(=O)CC(NC(=O)c2ccccc2Cl)c2ccccc2)c1 (stereo unspecified),2,i,-5,13,-1,-1,-3,-6,

# Gathered by group: the entries above with a COOH group.
SMILES,PABP polyA inh,Rce1 inh,eIF4H FP inh,HIV Env fusion,MT1-MMP act inh,MT1-MMP act inh RFP,Yeast UUG start,CSC inhib,others
O=C(O)c1ccc2oc(=O)c(S(=O)(=O)c3ccc(F)cc3)cc2c1,0,i,-7,5,1,1,-10,-17,
Cc1ccc(C)c(CSc2ncccc2C(=O)O)c1,-14,i,4,nt,3,0,nt,nt,

# Other compounds.
SMILES,PABP polyA inh,Rce1 inh,eIF4H FP inh,HIV Env fusion,MT1-MMP act inh,MT1-MMP act inh RFP,Yeast UUG start,CSC inhib,others
O=C(c1cc2c(s1)CCC2)N1C(=O)c2ccccc2S1(=O)=O,11,i,-2,nt,0,1,-1,-12,
COc1ccc(CN2CCN(Cc3ccc4ccccc4c3)CC2)cc1OC,0,i,7,9,7,-12,-14,-5,
CCN1C(C#N)=C(C#N)N=C(C)CC1(C)C,11,i,8,7,-5,-1,nt,-5,
COc1ccc(CCNC(=O)CNS(=O)(=O)c2ccc(Br)s2)cc1OC,0,i,4,nt,-3,-1,4,-11,
CCCC(=O)N1CCCC(C(=O)c2cccc(OC(C)C)c2)C1 (stereo unspecified),nt,i,nt,-2,0,-5,1,0,
Cc1ccc(S(=O)(=O)N2CCCCC2)cc1NC(=O)Cn1cnc2c1c(=O)n(C)c(=O)n2C,nt,nt,nt,-2,3,0,12,nt,
C=C(C)C1Cc2cc3ccc(=O)oc3cc2O1 (stereo unspecified),-4,i,-6,nt,2,1,-16,4,
O=C(O)CCNc1nc(-c2ccccc2)nc2ccccc12,8,i,3,nt,1,0,-5,-6,
CCCCc1ccc(S(=O)(=O)Nc2nnc(C)s2)cc1,4,i,-4,-27,0,3,-16,2,
O=C(Cc1ccc(F)cc1)Nc1cccc(-c2cn3c(n2)SCC3)c1,-10,i,-11,4,0,-1,nt,10,
O=c1[nH]c2sc3c(c2c(=O)n1Cc1ccccc1)CCC3,-3,i,-8,nt,-5,2,nt,10,
O=C(CSc1nc(-c2ccccc2)c(-c2ccccc2)[nH]1)NCc1ccco1,-3,i,2,70*,-6,-9,nt,56,
CS(=O)(=O)N(Cc1ccccc1)c1ccc(C(=O)N2CCN(c3cccc(Cl)c3)CC2)cc1,8,i,0,nt,-3,-15,nt,8,
COc1cc(NC(=O)Nc2nc(C(N)Cc3ccc(C(F)(F)F)cc3)cs2)cc(OC)c1OC (stereo unspecified),nt,nt,nt,18,7,-4,8,nt,
CCOC(=O)c1coc(CNC(=O)c2c(C)oc3c2CCCC3)c1,-8,i,8,nt,nt,nt,8,-11,
O=C(Nc1ccc(Nc2ccccc2)cc1)c1ccc(Cl)cc1Cl,nt,i,nt,12,8,-3,-3,67,
COc1ccc(S(=O)(=O)N2CCCCC2)cc1NC(=O)c1ccc(N2CCCC2=O)cc1,nt,nt,nt,-1,-2,-3,-4,nt,
CCC(=O)NC(c1ccco1)c1cc(Cl)c2ccccc2c1O (stereo unspecified),nt,nt,nt,4,-14,5,-6,2,
Cc1ccc(-c2onc3ccc(C4(C)OCCO4)cc23)cc1,0,i,-6,-114,-16,-9,8,15,
COc1cccc(-n2nnc3c(=O)n(CC(=O)Nc4ccccc4C)cnc32)c1,5,i,1,-14,2,4,-30,3,
O=C(c1ccccc1Cl)N1CCN(c2ncccn2)CC1,nt,i,nt,7,1,1,-6,-3,
Brc1ccc(NCc2cccc3ccccc23)nc1,-4,i,-5,-15,5,8,-16,27,
CCn1c(CNC(=O)c2ccc(OC)c(OC)c2)nnc1SCC(=O)c1ccc(OC)cc1,4,i,-2,nt,-3,-3,-4,-12,
CCCC1CCC(=NNS(=O)(=O)c2ccc(C)c([N+](=O)[O-])c2)CC1 (stereo unspecified),-2,i,-3,-11,-2,2,nt,-12,
O=C(Cn1ccc([N+](=O)[O-])n1)N1CCCc2ccccc21,3,i,4,nt,-1,-2,-11,-6,
CCOC(=O)Cn1c(C)cc(COC)c(C#N)c1=O,8,i,3,-9,-2,3,nt,-9,
CN1C(=O)C(CC(=O)NCC2CCCCC2)SC1=Nc1ccccc1 (stereo unspecified),12,nt,-4,5,2,-3,nt,-12,
Cc1sc(-n2c(C)ccc2C)c(C#N)c1C,8,i,3,-13,-10,2,-13,1,
